# AID504770 = growth inhibitors of E. coli YBA685 in a screen for V. cholerae RctB (chromosome II replication) inhibitors; z-score (concentration not given with the values); E. coli YBA685 rctB-dependent plasmid, OD600 growth, 3 h; stronger effect = lower value; hit rate 0.27% among 130,000; AID 504770;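 active means z-score under -2 on both plates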;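 further: wells of about 30 µL received 100 nL stock; score is relative to mean and SD of the test wells; the first replicate is given; strong numbers were not always called active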
# Ba CapD inh = blocks the Bacillus anthracis CapD enzyme; purified CapD enzyme, fluorescence intensity read-out; stronger effect = lower value; some hits fall short of the stated cut; z-score (no concentration beside the values); hit rate 0.23% among 140,000; AID 492967;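 active means z-score under -4 in either of two replicates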;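 further: stock transfer was 100 nL into about 40 µL; score is relative to mean and spread of the plate; one replicate is shown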
# The depositor's hits bear a star; x = no result given.
canonical_smiles	AID504770	Ba CapD inh
Cc1cc(C)c(C(=O)Nc2cccc3c(=O)[nH][nH]c(=O)c23)c(C)c1	1.1	x
COCCNC(=O)C1CCCN(S(=O)(=O)c2ccc(OC)c(OC)c2)C1 (centres undefined)	1.5	x
COc1ccc(CNC(=O)c2cnc(OC)cc2C(F)(F)F)c(OC)c1	-0.05	2.3
COc1ccc(-c2nc3ccccc3o2)cc1	-0.45	30
COc1ccc(NC(=O)CS(=O)(=O)c2ccc(Cl)c(Cl)c2)cc1	x	-0.34
COc1ccc(-c2cn(/N=C/c3ccc(Cl)cc3Cl)c(NC(=O)Nc3ccccc3Cl)n2)cc1	x	-0.18
Cc1ccc(NC(=O)C(Cc2ccccc2)N2CCS(=O)(=O)CC2)cc1C (centres undefined)	x	-0.3
NNC(=S)NCCCN1CCOCC1	x	0.23
Nc1c2c(=O)[nH]c(O)cc2nn1-c1ccccc1	0.55	0.05
Oc1c(C(c2ccco2)N2CCOCC2)sc2ncnn12 (centres undefined)	1.2	x

# (next part)
canonical_smiles	AID504770	Ba CapD inh
COc1ccc(-c2ccc(C#N)c(Cl)n2)cc1	-0.4	74
C=CCNC(=O)CSc1nc(=O)n2cc(C)ccc2n1	-0.4	x
N#Cc1ccc(-c2ccccc2)nc1SC(C(=O)O)c1ccccc1 (centres undefined)	-0.15	2.9
COC(=O)C1=Cc2cc(OC)ccc2OC1	-0.1	0.025
O=C(COc1ccc(Cl)cc1)NCCCN1CCN(c2ccccc2)CC1	1.2	-0.2
CN1c2ccccc2C(O)=C(C(=O)Nc2ccc(Cl)c(Cl)c2)S1(=O)=O	x	2.2
Oc1ccc(-c2cn3c(n2)SCC3)cc1	0	0.28
CCCN1CCN(C(=O)c2sc3ncnc(N(CC)CC)c3c2C)CC1	x	-0.16
CC1CCCC(C)N1Cc1c(O)ccc2c(-c3ccccc3)cc(=O)oc12 (centres undefined)	-0.8	1.1
CC(C)(C)NCC(O)Cn1c2ccc(Br)cc2c2cc(Br)ccc21 (centres undefined)	x	4

# In another format: three of the compounds above.
O=C(COc1ccc(Cl)cc1)NCCCN1CCN(c2ccccc2)CC1
  AID504770 = 1.2	Ba CapD inh = -0.2

CN1c2ccccc2C(O)=C(C(=O)Nc2ccc(Cl)c(Cl)c2)S1(=O)=O
  AID504770 = x	Ba CapD inh = 2.2

Oc1ccc(-c2cn3c(n2)SCC3)cc1
  AID504770 = 0	Ba CapD inh = 0.28

# Next part:
canonical_smiles	AID504770	Ba CapD inh
O=C(/C=C/c1ccccc1)Nc1ccc2[nH]c(=O)[nH]c2c1	1.4	-1
CCOC(=O)/C(C#N)=C/Nc1cc(C)no1	-0.75	-4.2*
CCN(CCO)C(=O)CCN1C(=O)/C(=C/c2cccs2)SC1=S	x	-1.8
O=C(CSc1ncccn1)NC(=O)NCc1ccccc1	-0.2	x
O=C(COC(=O)C1CCCCC1)Nc1ccc2c(c1)OCCO2	-0.45	x
CCCSc1nnc2c(n1)[nH]c1c(C)cccc12	x	-0.15
CC1CN(C2=NCCN2S(=O)(=O)c2ccc(Cl)cc2)CC(C)O1 (centres undefined)	-0.8	1.3
CC(N)CCc1ccco1 (centres undefined)	0.65	x
Cc1oc(-c2ccc(Cl)cc2)cc1C(=O)O/N=C(\N)Cc1nc2cccnc2n1C1CC1	0.2	2.6
O=C1NC(=O)/C(=C\c2cc(Br)ccc2OCc2ccc(F)cc2)S1	x	1.6

# Next structures.
canonical_smiles	AID504770	Ba CapD inh
CC(C)(C)OC(=O)NC(Cc1cnc[nH]1)C(=O)NNC(=O)c1ccc(-c2ccccn2)s1 (centres undefined)	x	3.1
CCOC(=O)c1c(NC(=O)c2cccc([N+](=O)[O-])c2)sc(C(=O)Nc2ccc(C)c(Cl)c2)c1C	x	-0.4
O=c1c2c3c(sc2nnn1Cc1ccccc1)CCCC3	-1	0.015
CC1Sc2ccc(C(F)(F)F)cc2NC1=O (centres undefined)	0.5	-0.11
O=C(Nc1cccc(F)c1)N(Cc1ccc(Cl)cc1)CC(O)C(F)(F)F (centres undefined)	x	0.15
Cc1cc(=S)[nH]c2ccccc12	1	x
CC1=C(C(=O)OCCc2ccccc2)C(c2cc3c(cc2Br)OCO3)NC(=O)N1C (centres undefined)	x	-0.05
Cc1cc(C)n(NC2=CC(=O)CC(C)(C)C2)c(=O)c1C#N	0.75	-2.6
COc1ccc(OC(=O)C2CCN(S(=O)(=O)c3cccc4nsnc34)CC2)cc1	3	x
COc1cccc(-n2ccnc2SCC(=O)Nc2ccc(N3CCN(C)CC3)cc2)c1	0	x

# Entries of single compounds, looked up by structure. Screens in order: AID504770 | Ba CapD inh
# CC1Sc2ccc(C(F)(F)F)cc2NC1=O (centres undefined) in the list: 0.5 | -0.11
# COc1cccc(-n2ccnc2SCC(=O)Nc2ccc(N3CCN(C)CC3)cc2)c1 in the list: 0 | x
# CCOC(=O)c1c(NC(=O)c2cccc([N+](=O)[O-])c2)sc(C(=O)Nc2ccc(C)c(Cl)c2)c1C in the list: x | -0.4
# CC(C)(C)OC(=O)NC(Cc1cnc[nH]1)C(=O)NNC(=O)c1ccc(-c2ccccn2)s1 (centres undefined) in the list: x | 3.1
# Cc1cc(=S)[nH]c2ccccc12 in the list: 1 | x

# Additional structures follow:
canonical_smiles	AID504770	Ba CapD inh
CC(C)C(=O)n1nc(-c2cccnc2)nc1NCc1ccccc1	0.25	0
COc1ccc(Nc2nc(Cl)nc(Nc3cccc([N+](=O)[O-])c3)n2)cc1	x	-0.57
CCOc1cc(/C=C2\SC(=O)N(C)C2=O)cc(Cl)c1OCC	0.15	0.29
COc1ccc(CS(=O)(=O)c2nc(C)cc(C)c2S(C)(=O)=O)cc1	x	-0.3
O=C1c2ccc(-c3nc4ccccc4c(=O)o3)cc2C(=O)N1c1ccc2c(c1)OCO2	-1.1	0.1
O=c1[nH]c(Nc2nc3ccccc3o2)nc(O)c1Cc1ccccc1	-0.4	x
CCN(CC)C(=O)CSc1nc2ccccc2n1S(=O)(=O)c1cccc([N+](=O)[O-])c1	x	-0.075
COc1cc(C(CC(=O)NCCN2CCOCC2)N2Cc3ccccc3C2=O)cc(OC)c1OC (centres undefined)	0.05	-0.2
O=C(CSc1ncc(-c2ccccc2)n1-c1ccccc1)NCCN1C(=O)CSC1=O	-0.55	x
COc1ccc(C2C3=C(CC(C)(C)CC3=O)Nc3ncnn32)c(OC)c1OC (centres undefined)	x	-0.51

# Continuation.
canonical_smiles	AID504770	Ba CapD inh
O=C(Nc1ccc(Br)cc1F)c1cc(S(=O)(=O)N2CCc3ccccc3C2)ccc1F	x	0.63
COc1ccc(-n2c(SCC(=O)NC3CC3)nc3ccccc32)cc1	1.1	x
CCC(=O)N1CCCc2cc(S(=O)(=O)N3CCN(C4CCCCC4)CC3)ccc21	-0.45	0.3
CCCc1nnc2c3c4c(sc3ncn12)CCCC4	-1.1	-0.85
C[N+](C)(C)[C@H]1C(O)O[C@@H]2C(O)CO[C@@H]21 (some centres undefined)	0.3	0.56
CC1CC1C(=O)OCC(=O)NC(c1ccccc1)c1ccccc1 (centres undefined)	-0.75	-0.33
Cc1sc(NC(=O)C2CC2)c(C#N)c1C	-0.7	x
O=C(Nc1cc(F)c(Br)cc1F)c1ccc(Cl)cc1	0.65	0.12
Cc1ccc(C(C)C)c(OCC(=O)Nc2oc(-c3ccccc3)c(-c3ccccc3)c2C#N)c1	x	-0.22
Cc1cc(C(=O)OCC(=O)Nc2sc3c(c2C#N)CCCC3)c2ccccc2n1	2	0.45

# Later entries:
canonical_smiles	AID504770	Ba CapD inh
COC(=O)c1cc(NC(=O)COC(=O)C2CCC2)cc(C(=O)OC)c1	0.05	x
CCCOC(=O)CNc1n[nH]c(=O)[nH]c1=O	-0.3	x
O=C(CCC1CCCC1)N1CCN(C(=O)COc2ccccc2)CC1	-1.1	-0.28
Cn1c(C(=O)N2CCN(c3ccccn3)CC2)cc2c(=O)n(C)c3ccccc3c21	0.4	-0.5
NS(=O)(=O)c1ccc(CNC(=O)CNC(=O)Cc2ccccc2)cc1	-0.7	x
CC1(C)[C@H]2CCC1(CS(N)(=O)=O)C(=O)C2	0.4	-0.4
O=S(=O)(c1ccccc1)N1CCN(S(=O)(=O)c2ccc3ccccc3c2)CC1	1.4	-0.31
C=CCNc1nc(C(=O)OCC(=O)N2CCN(c3ccc(OC)cc3)CC2)cs1	0.1	x
CCCNC(=O)c1cc2c(Cl)ccc3c2n1CCO3	0.55	99
COc1ccc(CCN2C(=O)CSC2c2ccc3cccc(O)c3n2)cc1OC (centres undefined)	-0.55	-0.58

# Further results:
canonical_smiles	AID504770	Ba CapD inh
c1ccc(-c2ccc3ccccc3n2)cc1	-0.25	-0.34
COc1ccccc1CN(C)C(=O)c1cccc(S(=O)(=O)N2CCCC2)c1	2.6	x
COCCn1cc(C(=O)O)c2ccccc21	-0.25	x
CSc1nc2ccccc2cc1/C=N/OC(=O)c1ccc(Cl)c(Cl)c1	x	1.6
O=C(NNC(=O)c1ccccc1OC(F)(F)F)c1ccc2nsnc2c1	x	0.37
C/C(=N\NC(=S)NCc1ccccc1)c1ccc(S(=O)(=O)NCc2ccco2)cc1	-0.15	x
O=C(O)c1cnc(N2CCCCC2)nc1	0.15	x
COC(=O)c1sc2ccccc2c1OS(=O)(=O)c1ccc(OC)c(OC)c1	x	0.34
O=C(c1ccncc1)N(Cc1ccc2c(c1)OCO2)C1CCCC1	0.85	x
CCOC(=O)C(C(=O)Nc1cccc(C)n1)C1CCCCC1 (centres undefined)	-0.15	55

# (further entries)
canonical_smiles	AID504770	Ba CapD inh
COc1ccc(-c2nn(-c3ccccc3)cc2C(=O)Oc2ccccc2)cc1OC	1.4	4.5
COc1cc(OC)c(C=Nc2ccccc2)cc1Br	-0.05	4.3
COc1ccc(C)cc1S(=O)(=O)NC(CO)Cc1ccc(O)cc1 (centres undefined)	x	-0.83
COc1ccc(N2C3=[N+](CC2(C)O)c2ccccc2CC3)cc1 (centres undefined)	0.6	0.005
c1ccc(CSc2nnc(Cc3ccccc3)o2)cc1	3.6	-1.4
Cc1nc(SCC(=O)N(Cc2ccco2)CC(F)(F)F)c2ccccc2n1	0.05	x
N#Cc1cccc(N=Cc2ccc3c(c2)OCO3)c1	-0.35	1.9
COc1cc(C=C2C(=O)NC(=O)NC2=O)cc(Cl)c1OCCOc1ccccc1	x	-0.53
COc1ccccc1CNC(=S)NCCO	x	0.17
CCc1ccc(C(=O)c2cnc3cc4c(cc3c2N2CCCC2)OCCO4)cc1	1.6	-1.9

# (more compounds)
canonical_smiles	AID504770	Ba CapD inh
Cc1ccccc1-n1c(=S)sc2c1nc(SCC(=O)NCc1ccccc1)n1c3ccccc3nc21	x	-0.22
CSc1nc2c(Cl)cccc2c2c1c(=O)[nH]n2C	1.5	0.34
COc1ccc(Nc2nc(Cl)nc(NC3CCCC3)n2)cc1	x	-0.44
O=C(O)CSCc1nc(-c2ccc(Cl)cc2)no1	-0.25	0.46
Cc1ccc2c(c1)-c1nc3nc(N)[nH]c(=O)c3cc1C(O)O2 (centres undefined)	-0.35	x
O=C(c1ccc(=O)[nH]c1)N1CCCSC1=Nc1cccc(C(F)(F)F)c1	-0.9	x
Cc1nn(CC(C)C)c(Cl)c1/C=C/C(=O)O	-0.45	x
CC(CCc1ccccc1)NC(=O)CCc1nnc2ccc(N3CCOCC3)nn12 (centres undefined)	0	-0.03
CC(C)C(=O)Nc1ccc2c(c1)OCCO2	0.1	0.45
COC(=O)c1ccc2nc(NC(=O)CN3C(=O)CCC3=O)sc2c1	-0.25	7.5

# Going on with the list.
canonical_smiles	AID504770	Ba CapD inh
CSc1ccc(C2C3=C(CCCC3=O)Nc3ncnn32)cc1 (centres undefined)	x	-0.57
Cc1ccc(C(=O)N2CCC(C)CC2)cc1	-0.2	-0.14
CCCN1c2ccccc2-c2c(ssc2=S)C1(C)C	x	-1.8
O=C(O)c1ccccc1Oc1cccc([N+](=O)[O-])c1	x	-0.41
COc1cc(CO)ccc1OCc1ccc(C(=O)O)cc1	-1.4	0.33
O=C(COc1cccc2ccccc12)N1CCN(c2ccccn2)CC1	0.05	x
Cc1ccc(F)cc1S(=O)(=O)NC1CCCCNC1=O (centres undefined)	0.8	0.45
CC1(C)C2CCC1(CS(=O)(=O)N1CCc3ccccc31)C(=O)C2 (centres undefined)	-1	x
CN(C)C(=O)Nc1cnccc1C(F)(F)F	-0.75	-0.3
O=C(O)CC1NC(=S)N(Cc2ccccc2)C1=O (centres undefined)	-0.4	x

# (further entries)
canonical_smiles	AID504770	Ba CapD inh
CSC(=Nc1cc(C(F)(F)F)cc(C(F)(F)F)c1)N1CCCCC1	0.4	0.43
COc1ccc(C2C(C#N)=C(N)Oc3c2c(C)nn3-c2ccccc2)cc1 (centres undefined)	x	-0.17
CC(Sc1nnc(-c2ccc(Cl)cc2)n1C)c1nc2ccccc2c(=O)[nH]1 (centres undefined)	-0.45	x
O=C(c1nnc(-c2ccc(Cl)cc2)o1)C1CCCC1	1.2	x
COc1ccc(S(=O)(=O)N2CCc3ccc(NS(=O)(=O)c4cccc(C(F)(F)F)c4)cc32)cc1	x	-0.48
Cc1cc2cc(CNC(=O)COc3ccccc3)ccc2[nH]1	-0.7	-0.49
CC1CN(C(=O)c2cc3c(=O)n4ccccc4nc3s2)CC(C)O1 (centres undefined)	2.5	x
COc1ccc(C(=O)NCc2nnc(SCC(=O)N3N=C(c4ccc(OC)cc4)CC3c3ccc(F)cc3)n2C)cc1 (centres undefined)	x	0.72
O=C(COc1coc(CN2CCc3ccccc32)cc1=O)Nc1ccc2c(c1)OCCO2	0.7	x
CCn1c2ccccc2c2cc(CN3CCN(C(=O)c4c(OC)cccc4OC)CC3)ccc21	-0.65	-0.6

# The listing continues.
canonical_smiles	AID504770	Ba CapD inh
CCC(=O)c1ccc2cc(OC)ccc2c1	-0.45	-0.77
Cc1ccc(S(=O)(=O)NC(=O)N(c2ccc3c(c2)CCN3S(C)(=O)=O)C2CCN(C)CC2)cc1	x	0.7
N#Cc1ccc(NC(=O)c2ccccc2C(=O)O)cc1	1.2	0.33
CCSc1nc2ccccc2c(=O)n1CCOC	1.7	x
Cc1ccc(N=Nc2c(C)[nH]n(C(C)(C)C)c2=O)cc1	x	-3.4
